# Screening results from PubChem.
# TRPML1 agonist: activates the human TRPML1 channel; 0.12% of 410,000 active; TRPML1-expressing cells, Ca2+ dye fluorescence, FDSS; host cell line not named in the record; reference of the full effect not given here; AID 624414; activation, % (test concentration not listed); in the data active = activation above about 50%; inconclusive = about 30% to 50%; inactive = below about 30%; further: 0% is about no effect; the text of the record puts the active cut at 80%
# Target sequence (Q9GZU1 whole entry, looked up): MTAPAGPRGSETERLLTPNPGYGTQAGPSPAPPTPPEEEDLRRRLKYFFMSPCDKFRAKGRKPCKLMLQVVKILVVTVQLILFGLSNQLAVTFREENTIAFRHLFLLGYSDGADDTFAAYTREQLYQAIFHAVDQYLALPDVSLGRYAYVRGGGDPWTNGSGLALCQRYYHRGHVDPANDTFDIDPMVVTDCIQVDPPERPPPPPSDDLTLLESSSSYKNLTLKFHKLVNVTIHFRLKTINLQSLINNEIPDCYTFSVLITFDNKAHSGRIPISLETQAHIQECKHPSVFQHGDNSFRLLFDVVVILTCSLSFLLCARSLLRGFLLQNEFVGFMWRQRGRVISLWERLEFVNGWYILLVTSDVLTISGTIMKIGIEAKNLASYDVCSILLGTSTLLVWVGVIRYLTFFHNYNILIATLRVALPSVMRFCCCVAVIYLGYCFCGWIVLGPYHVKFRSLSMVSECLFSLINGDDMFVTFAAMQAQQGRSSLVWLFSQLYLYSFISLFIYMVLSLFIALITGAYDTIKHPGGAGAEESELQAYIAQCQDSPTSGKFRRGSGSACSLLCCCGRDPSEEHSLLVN
#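 In this qHTS format, compounds were pin-transferred onto Ca8-dye-loaded TRPML1-DL cells induced with Tet overnight, and intracellular Ca2+ fluorescence was recorded kinetically for 110 s after a 10 s baseline. A subsequent 4uM final 54-4 (EC80) addition followed by a second 110 s read served as the antagonist phase.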
# TRPML1 blocker: blocks the human TRPML1 channel. Q9GZU1. TRPML1-inducible cells, Ca2+ dye fluorescence, FDSS; active compounds read low; inhibition of EC80 agonist-evoked calcium signal. activity change, negative = inhibition, % (test concentration not listed). 0.02% of 390,000 active. AID 624415; in the data active means activity change below about -50%; inconclusive means about -30% to -50%; inactive means above about -30%;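 further: stimulus is agonist 54-4 at its EC80 concentration; on the % scale 0 is the no-effect control and ±100 the full control effect; compound concentration not given in the record; the text of the record puts the active cut at -80%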
#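 TRPML1-DL cells, Tet-induced overnight (~16 h, 37 °C) at 1,500 cells/well, were loaded with Ca8 no-wash dye plus quencher for 45-90 min at room temperature. Compounds were pinned during FDSS kinetic reading; agonist 54-4 at EC80 (4 uM final) then added.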
# Six1-Eya2 blk: Six1/Eya2 interaction inhibition | AlphaScreen GST-Six1/His-Eya2 binding, biochemical; active compounds read low; control for the full effect not named in the record | 0.56% of 360,000 active | Q15475+O00167 | activity change, % (concentration not given with the values); in the data active = activity change below about -65%; inconclusive = about -30% to -65%; inactive = above about -30%; further: on the % scale 0 is the no-effect control and ±100 the full control effect
#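 GST-Six1 + His-Eya2 (5X stock: 250/500 nM); Tris pH 8.0, 300 mM NaCl, 0.05% BSA, 0.02% Tween 20; GSH donor/Ni acceptor beads; 1 h 37 °C dark; AlphaScreen readout.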
# D2 potentiator: potentiates the human D2 dopamine receptor allosterically; P14416; DiscoveRx D2 beta-arrestin cells, luminescence, 90 min; 100% = 57 uM dopamine signal; potentiation, % (no concentration beside the values); 0.23% of 360,000 active; AID 624464; active = potentiation of 50% or more; inconclusive = 30% to 50%; inactive = 30% or less;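 further: compound concentration not given in the record; tested on top of an EC20 dose of dopamine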
# Target sequence (P14416 whole entry, looked up): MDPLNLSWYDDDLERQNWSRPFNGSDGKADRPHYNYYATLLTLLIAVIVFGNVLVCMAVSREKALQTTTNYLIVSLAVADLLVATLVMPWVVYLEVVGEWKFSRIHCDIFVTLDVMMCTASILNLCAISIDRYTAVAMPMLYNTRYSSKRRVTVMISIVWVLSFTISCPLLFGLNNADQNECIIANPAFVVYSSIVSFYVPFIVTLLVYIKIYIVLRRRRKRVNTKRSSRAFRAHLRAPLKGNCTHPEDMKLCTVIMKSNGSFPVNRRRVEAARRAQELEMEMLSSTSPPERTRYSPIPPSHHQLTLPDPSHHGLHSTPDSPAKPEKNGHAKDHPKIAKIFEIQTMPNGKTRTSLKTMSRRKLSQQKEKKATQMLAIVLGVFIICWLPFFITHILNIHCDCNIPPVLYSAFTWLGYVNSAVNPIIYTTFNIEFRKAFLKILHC
#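 PathHunter beta-arrestin assay in DiscoveRx D2 cells. Compounds were added with an EC20 of dopamine (50 nM final) for 90 min at 37 deg C. Luminescence was read 1 h after detection reagent, with 57 uM dopamine as the EC100 control.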
# PINK1 expr mod: changes PINK1 expression; PINK1 immunofluorescence, high-content cytometry, 24 h; Potency, µM (titrated, usually from 76.6 µM), for inactives: at the highest dose activation (PINK1 increase), actives largely listed as activators; 0.2% of 410,000 active; active = well fitted activation curve with a large enough effect; inconclusive = small, poorly fitted or top-dose-only effect; inactive = flat fitted curve, though single readings scatter; cell line not stated here;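 further: potency means the concentration at half of the fitted maximal effect; % of control where 0% means no effect; nearly all actives have a fitted effect of over 65% in size; a mitochondrial uncoupler was the plate control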
#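 Stable cell line treated 24 h with compounds at 5 concentrations (CCCP controls), then fixed and immunostained for PINK1 plus nuclear and cell stains; PINK1 immunofluorescence quantified by laser-scanning microplate cytometry.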
# D2 ag: activates the human D2 dopamine receptor. DiscoveRx PathHunter D2 beta-arrestin, luminescence, 90 min; 100% = 57 uM dopamine signal. activation, % (concentration not given with the values). 0.084% of 360,000 active; in the data active = activation above about 40%; inconclusive = about 15% to 40%; inactive = below about 15%; further: compound concentration not given in the record; the text of the record calls up to 30% inactive
#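 Agonist mode: compounds alone added to overnight-plated D2 PathHunter cells for 90 min at 37 C, with 57 uM final dopamine (EC100) defining full response. Beta-arrestin recruitment detected by chemiluminescent reagent, read after 1 h at ambient temperature.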
# * hit, by the source's call; u = inconclusive; x = no result given. Not a hit list (roughly 1% active in at least one column).
SMILES,TRPML1 agonist,TRPML1 blocker,Six1-Eya2 blk,D2 potentiator,PINK1 expr mod,D2 ag
Cc1cc(OCC(=O)N2CCC(c3nc4ccccc4s3)CC2)ccc1Cl,-0.6,-1,x,x,2.9%,x
CC(C)C[C@H](NC(=O)c1nc[nH]c1C(=O)N[C@@H](CCCCNC(=O)OC(C)(C)C)C(=O)OC(C)(C)C)C(=O)OC(C)(C)C,0.5,-3,6,-6,3.4%,-7.4
CC1CN(C(=O)CCNC(=O)c2ccc(Br)cc2)CC(C)O1 (configuration not stated),0.6,4,3,-6,-2.6%,-3.1
NS(=O)(=O)c1cc(C(=O)Nc2ccc3c(c2)CCC3)ccc1Cl,0.4,4,6,-11,1.9%,-3.6
COC(=O)c1ccc(-n2c(C)cc(C(=O)CSc3ccc(NC(C)=O)cc3)c2C)cc1,3.9,-10,-20,2,1.5%,0.5
COc1cccc(NC(=O)C2Cc3ccccc3CN2C(=O)c2ccco2)c1 (configuration not stated),0.0,-4,9,-6,1.5%,-4.3
CC1CCc2nc(NC(=O)c3ccc(N4C(=O)CCC4=O)cc3)sc2C1 (configuration not stated),0.2,3,-2,-1,-0.2%,1.5
COc1ccc(COC(=O)c2c(C)nn(-c3ccccc3)c2Cl)cc1,1.2,5,18,1,4.9%,2.6
CN(C(=O)c1ccc2c(c1)CCN2S(C)(=O)=O)c1ccccc1,-0.6,37,2,-1,2.7%,1.0
Nc1ccn(C2CCCO2)c(=O)n1 (configuration not stated),-0.3,-22,13,-10,0.9%,4.0
O=C(OCC(=O)N1CCN(c2ccccc2)CC1)c1cccc(Cl)c1,1.8,14,-13,-7,2.1%,-2.5
Cc1nn(-c2ccc(F)cc2)c(-n2cccc2)c1C(=O)NCCCN1CCN(c2ccccc2F)CC1,4.8,23,x,x,-1.6%,x
CCCS(=O)(=O)N1CCCC(C(=O)N2CCN(c3ccccn3)CC2)C1 (configuration not stated),0.5,-5,0,4,2.4%,-0.6
CC(=O)Nc1cc(C(=O)N2CCc3ccccc3C2)ccc1Sc1ccc(F)cc1,1.5,-1,22,-22,-1.5%,-2.1
CC(=O)N1CCc2cc(CNC(=O)Cc3ccc(F)cc3)ccc21,-1.3,4,x,x,1.3%,x
O=C(NNC(=O)C12CC3CC(CC(O)(C3)C1)C2)c1csc(N2CCOCC2)n1,0.1,-12,5,-27,-2.0%,-5.3
CCC1CCCCN1C(=O)COc1c(Br)cc(Br)c2cccnc12 (configuration not stated),-0.5,3,-9,-38,0.2%,-2.0
Cc1cc(NC(=O)CCC2CCCCC2)no1,4.1,-7,3,-7,-1.3%,-2.5
NC(=O)c1cc([N+](=O)[O-])ccc1NCCc1ccccc1,-0.1,-3,-2,7,1.2%,-1.3
Cc1cc(C)cc(NC(=O)C(CC(C)C)NC(=O)C2CCCCC2)c1 (configuration not stated),-0.3,-6,x,x,-0.9%,x

# Taken from above:
# Cc1cc(OCC(=O)N2CCC(c3nc4ccccc4s3)CC2)ccc1Cl | TRPML1 agonist = -0.6
# CC(=O)N1CCc2cc(CNC(=O)Cc3ccc(F)cc3)ccc21 | TRPML1 agonist = -1.3
# Cc1cc(NC(=O)CCC2CCCCC2)no1 | TRPML1 agonist = 4.1
# CN(C(=O)c1ccc2c(c1)CCN2S(C)(=O)=O)c1ccccc1 | Six1-Eya2 blk = 2
# CC(=O)Nc1cc(C(=O)N2CCc3ccccc3C2)ccc1Sc1ccc(F)cc1 | TRPML1 blocker = -1

# 5 compounds out of the list above, ordered by their value in PINK1 expr mod, highest first:
Structure,PINK1 expr mod
CCCS(=O)(=O)N1CCCC(C(=O)N2CCN(c3ccccn3)CC2)C1 (configuration not stated),2.4%
NS(=O)(=O)c1cc(C(=O)Nc2ccc3c(c2)CCC3)ccc1Cl,1.9%
CCC1CCCCN1C(=O)COc1c(Br)cc(Br)c2cccnc12 (configuration not stated),0.2%
O=C(NNC(=O)C12CC3CC(CC(O)(C3)C1)C2)c1csc(N2CCOCC2)n1,-2.0%
CC1CN(C(=O)CCNC(=O)c2ccc(Br)cc2)CC(C)O1 (configuration not stated),-2.6%

# (next part)
SMILES,TRPML1 agonist,TRPML1 blocker,Six1-Eya2 blk,D2 potentiator,PINK1 expr mod,D2 ag
O=C(Nc1ccc2c(c1)OCO2)C1CCN(S(=O)(=O)Cc2ccccc2)CC1,-0.5,4,-8,-16,0.1%,-2.6
CC(C)(C)C(=O)NCC12C=CC(O1)C1C(=O)N(c3ccccc3)C(=O)C12 (configuration not stated),0.5,-9,3,-13,u,-0.2
COc1cc(S(=O)(=O)NCc2ccc3c(c2)OCO3)ccc1F,4.0,19,-1,-7,0.1%,-0.5
c1cnc2c(Oc3ncnc4sccc34)cccc2c1,3.4,-7,3,14,-1.6%,-2.8
Cc1ccc(OCC(=O)NS(=O)(=O)c2ccccc2)cc1,0.0,8,2,2,2.9%,3.6
C[C@H]1CN([C@@H](C)CO)S(=O)(=O)c2ccc(Br)cc2O[C@@H]1CN(C)C(=O)C1CCOCC1,-0.2,-7,3,7,3.3%,-4.7
CC(=O)c1cccc(NC(=O)c2sc3nc4n(c(=O)c3c2C)CCCCC4)c1,0.8,-3,-21,3,1.3%,5.5
N#CCCn1cc(C(=O)Nc2ccccc2Br)c(-c2cccs2)n1,2.5,-8,0,2,6.5%,0.9
COc1ccc(Cl)cc1-c1nc(SCC(=O)N(C)C2CCS(=O)(=O)C2)n[nH]1 (configuration not stated),-0.3,6,2,-7,1.1%,3.5
Cc1cc(Br)cn2c(Cc3ccsc3)c(-c3ccc(Cl)cc3)nc12,2.0,57,-13,-8,-0.9%,-4.7
COc1ccc(C2C(C(C)=O)=C(O)C(=O)N2Cc2cccnc2)cc1 (configuration not stated),0.4,-11,3,6,x,0.3
O=C(O)CC12CC3CC(C1)CC(n1ncc(NCc4ccccc4Cl)c(Cl)c1=O)(C3)C2,0.4,2,0,-6,-1.3%,-1.7
C(#CCN1CCOCC1)CCCN1CCOCC1,0.4,-9,1,-6,-0.9%,-1.9
COc1ccc(-c2noc(CN(C)Cc3ccccc3)n2)c(OC)c1OC,-0.3,-6,5,-4,0.0%,-0.3
CCC(C)(C)C1CCC(=NNS(=O)(=O)c2ccc(C)c([N+](=O)[O-])c2)CC1 (configuration not stated),0.2,0,-8,-14,2.2%,-4.8
CCn1c(-c2cccn(Cc3ccc(Cl)cc3Cl)c2=O)n[nH]c1=S,0.0,13,4,-12,-0.6%,1.6
O=S1(=O)N[C@H](Cc2ccccc2)COc2cccc(N3CCN(Cc4ccccc4F)CC3)c21,0.2,x,-21,x,-1.2%,x
COc1ccc([C@@H]2CC=C(C(=O)O)[C@H](c3ccccc3F)N2S(=O)(=O)c2ccccc2C)cc1,-0.7,-6,-4,-5,1.5%,-0.6
COc1ccc(C(=O)C2CN(c3ccccc3)CC2c2ccc(Cl)cc2)cc1 (configuration not stated),0.9,-10,-4,-12,12%,-4.0
FC(F)(F)c1cccc(Cn2c3[n+](c4ccc(C(F)(F)F)cc42)CCCCC3)c1,0.4,1,0,-7,9.8%,0.1

# 2 of the compounds above, tab-delimited.
SMILES	TRPML1 agonist	TRPML1 blocker	Six1-Eya2 blk	D2 potentiator	PINK1 expr mod	D2 ag
COc1ccc([C@@H]2CC=C(C(=O)O)[C@H](c3ccccc3F)N2S(=O)(=O)c2ccccc2C)cc1	-0.7	-6	-4	-5	1.5%	-0.6
C(#CCN1CCOCC1)CCCN1CCOCC1	0.4	-9	1	-6	-0.9%	-1.9

# The list goes on:
SMILES,TRPML1 agonist,TRPML1 blocker,Six1-Eya2 blk,D2 potentiator,PINK1 expr mod,D2 ag
O=C(/C=C/[C@H]1O[C@@H](n2ccc(=O)[nH]c2=O)[C@H](O)[C@@H]1O)NC1CCN(Cc2ccccc2)C1 (some centres not stated),-0.4,7,0,-6,3.2%,-4.7
COCCN1CN(S(=O)(=O)c2ccccc2)c2nc3ccccc3nc21,-0.8,7,-82*,-5,1.3%,1.1
CCn1c(=O)cc(OCC(=O)Nc2ccccc2N2CCN(C)CC2)c2ccccc21,0.8,6,-9,-7,2.9%,-8.9
O=C(c1cnn(C(=O)c2ccccc2F)c1)c1ccccc1O,-0.2,-1,-5,-11,3.1%,-4.3
Cc1ccc(NC(=O)C(C)OC(=O)c2nc(Cl)ccc2Cl)cc1S(=O)(=O)N1CCOCC1 (configuration not stated),1.0,-10,-4,8,1.4%,10
CCOc1ccc(S(=O)(=O)Nc2ccc(OC)c(Cl)c2)c2cccnc12,0.6,-3,x,x,2.9%,x
Cc1ccc(/C=C/C(=O)NCCCN2CCN(CCCNC(=O)/C=C/c3ccc(C)o3)CC2)o1,0.1,24,2,-2,-0.2%,-2.1
O=C(Nc1cc(Sc2nc3ccccc3s2)cc([N+](=O)[O-])c1)c1ccccc1F,0.8,-8,-27,17,5.9%,5.1
O=C(Cc1ccc(Cl)cc1)Nc1ccccc1N1CCN(C(=O)c2ccccc2)CC1,0.6,37,-17,2,5.5%,2.2
CCC(C)(C)NC(=O)C(c1cccnc1)N(C(=O)c1csnn1)c1ccccc1 (configuration not stated),0.8,-2,9,-31,1.2%,-19
CCc1ccccc1NC(=S)N(CCOC)C(C)c1ccco1 (configuration not stated),1.3,15,2,-3,0.9%,-6.1
Cc1ccc2nc(NC(=O)CCCc3nc4ccccc4s3)sc2c1,1.1,-3,0,-13,-0.3%,-5.5
CN1CCc2nc(SC(C(=O)O)c3ccccc3)c(C#N)c(-c3cccs3)c2C1 (configuration not stated),0.0,7,-15,-1,0.7%,-1.6
Cc1cc(=O)[nH]c(SCC(=O)N2CC3(C)CC2CC(C)(C)C3)n1 (configuration not stated),-0.6,-13,6,-2,0.9%,-0.2
COC(=O)c1ccc(Cn2c(O)c(N=NC(N)=S)c3ccccc32)o1,0.3,-8,-22,-7,0.3%,-4.1
Cc1nnsc1C(=O)N1CCCC(C)(C(=O)NS(=O)(=O)C2CC2)C1 (configuration not stated),-0.1,x,1,-3,-0.2%,-2.3
CCOc1ccc2[nH]c(=O)c(C(c3nnnn3C3CCCCC3)N3CCN(C)CC3)cc2c1 (configuration not stated),0.0,-2,-1,2,-2.3%,-0.1
COc1ccc2c(-c3ccccc3)cc(SCC(=O)NC(N)=O)nc2c1,0.8,14,7,-12,2.1%,-1.0
CCNC(=O)N(C)C[C@H]1N[C@@](CC)(C(=O)OC)[C@H]2C(=O)N(C)C(=O)[C@@H]12,3.1,-9,3,3,-1.2%,-0.6
O=C(Cc1ccc(Cl)cc1)N/N=C/c1cccs1,0.8,34,3,-7,0.7%,-4.6
O=C(Cn1nc(CNc2ccc(Cl)cc2)[n+]2c1CCCCC2)c1ccc(Cl)cc1,0.0,-10,1,-11,8.6%,-7.3
COc1cc(/C=C/C(=O)O)cc(S(=O)(=O)Nc2ccccc2C(=O)NCc2ccco2)c1OC,1.0,-1,-19,-7,2.0%,-5.1
CCN(C(=O)c1coc(=O)c2ccccc12)c1ccccc1C,-1.4,47,x,x,-0.8%,x
